# Screens as filed in PubChem.
# Six1-Eya2 blk – qHTS Assay for Inhibitors of the Six1/Eya2 Interaction; Homeobox protein SIX1 (Homo sapiens) + Protein phosphatase EYA2 (Homo sapiens), …; AlphaScreen GST-Six1/His-Eya2 binding, biochemical; active compounds read low; control for the full effect not named in the record; activity change, % (test concentration not listed); 0.56% of 360,000 active; AID 651725, 2012; in the data active = activity change below about -65%; inconclusive = about -30% to -65%; inactive = above about -30%; further: on the % scale 0 is the no-effect control and ±100 the full control effect
#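 AlphaScreen luminescence read after one hour at 37 °C in darkness. Pin-transferred compounds met GST-Six1 and His-Eya2 protein (5X stock 250 nM/500 nM) plus glutathione donor and Ni-chelate acceptor beads (5X, 50 ug/mL).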
# TRPML1 blocker – qHTS for Inhibitors of the Human Mucolipin Transient Receptor Potential 1 (TRPML1). Mucolipin-1 (Homo sapiens), Q9GZU1. TRPML1-inducible cells, Ca2+ dye fluorescence, FDSS; active compounds read low; inhibition of EC80 agonist-evoked calcium signal. activity change, negative = inhibition, % (concentration not given with the values). 0.02% of 390,000 active. AID 624415, 2012; in the data active means activity change below about -50%; inconclusive means about -30% to -50%; inactive means above about -30%;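 further: stimulus is agonist 54-4 at its EC80 concentration; on the % scale 0 is the no-effect control and ±100 the full control effect; the text of the record puts the active cut at -80%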
# Target sequence (Q9GZU1 whole entry, looked up): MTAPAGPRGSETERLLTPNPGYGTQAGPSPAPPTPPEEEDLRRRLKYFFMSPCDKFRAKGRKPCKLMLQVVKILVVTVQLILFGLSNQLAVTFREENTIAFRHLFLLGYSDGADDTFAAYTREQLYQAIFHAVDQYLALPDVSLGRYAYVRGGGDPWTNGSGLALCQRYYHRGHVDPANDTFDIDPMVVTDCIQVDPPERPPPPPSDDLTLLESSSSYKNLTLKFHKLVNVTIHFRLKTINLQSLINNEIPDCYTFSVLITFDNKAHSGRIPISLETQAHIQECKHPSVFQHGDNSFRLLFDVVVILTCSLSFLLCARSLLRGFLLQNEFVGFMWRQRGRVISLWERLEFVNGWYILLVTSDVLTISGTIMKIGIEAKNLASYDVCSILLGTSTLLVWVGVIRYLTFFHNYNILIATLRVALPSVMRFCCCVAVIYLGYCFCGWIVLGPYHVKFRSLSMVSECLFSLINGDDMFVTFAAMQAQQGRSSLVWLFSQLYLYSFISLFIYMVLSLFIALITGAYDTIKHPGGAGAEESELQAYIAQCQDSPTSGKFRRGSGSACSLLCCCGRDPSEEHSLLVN
#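 Tet-induced TRPML1-DL cells loaded with Ca8 no-wash calcium dye were read kinetically on FDSS. Compound addition was followed by EC80 agonist 54-4 (4 uM final); inhibition was read over 110 s.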
# D2 PAM – Beta-Arrestin HTS for Positive Allosteric Modulators of the Human D2 Dopamine Receptor: Potentiators; 0.23% of 360,000 active; AID 624464, 2012; DiscoveRx D2 beta-arrestin cells, luminescence, 90 min; 100% = 57 uM dopamine signal; D(2) dopamine receptor (Homo sapiens), P14416; potentiation, % (concentration not given with the values); active = potentiation of 50% or more; inconclusive = 30% to 50%; inactive = 30% or less;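 further: compound concentration not given in the record; tested on top of an EC20 dose of dopamine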
# Target sequence (P14416 whole entry, looked up): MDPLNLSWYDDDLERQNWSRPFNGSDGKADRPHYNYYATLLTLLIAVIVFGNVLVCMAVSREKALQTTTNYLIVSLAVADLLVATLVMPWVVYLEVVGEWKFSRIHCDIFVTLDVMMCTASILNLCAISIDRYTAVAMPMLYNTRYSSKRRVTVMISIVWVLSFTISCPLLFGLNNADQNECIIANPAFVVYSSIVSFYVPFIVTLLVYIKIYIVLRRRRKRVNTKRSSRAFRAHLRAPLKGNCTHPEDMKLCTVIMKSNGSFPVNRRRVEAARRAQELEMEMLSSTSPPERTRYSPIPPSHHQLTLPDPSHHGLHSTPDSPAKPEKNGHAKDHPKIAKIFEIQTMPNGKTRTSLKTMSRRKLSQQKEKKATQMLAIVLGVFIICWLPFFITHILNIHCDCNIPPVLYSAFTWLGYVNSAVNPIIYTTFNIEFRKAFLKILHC
#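 PathHunter D2 cells, attached overnight at 37 deg C, received compound in DMSO plus dopamine at EC20 (50 nM final) for 90 min at 37 deg C. Beta-arrestin recruitment was read as luminescence after 1 h with detection reagent at ambient temperature.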
# D2 agonist – Beta-Arrestin HTS for Positive Allosteric Modulators of the Human D2 Dopamine Receptor: Agonists; D(2) dopamine receptor (Homo sapiens), P14416; DiscoveRx PathHunter D2 beta-arrestin, luminescence, 90 min; 100% = 57 uM dopamine signal; activation, % (concentration not given with the values); 0.084% of 360,000 active; AID 624465, 2012; in the data active = activation above about 40%; inconclusive = about 15% to 40%; inactive = below about 15%; further: compound concentration not given in the record; the text of the record calls up to 30% inactive
#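 Agonist mode: compounds alone added to overnight-plated D2 PathHunter cells for 90 min at 37 C, with 57 uM final dopamine (EC100) defining full response. Beta-arrestin recruitment detected by chemiluminescent reagent, read after 1 h at ambient temperature.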
# TRPML1 ag – qHTS for Agonists of the Human Mucolipin Transient Receptor Potential 1 (TRPML1). Mucolipin-1 (Homo sapiens), Q9GZU1. TRPML1-expressing cells, Ca2+ dye fluorescence, FDSS; host cell line not named in the record; reference of the full effect not given here. activation, % (no concentration beside the values). 0.12% of 410,000 active. AID 624414, 2012; in the data active = activation above about 50%; inconclusive = about 30% to 50%; inactive = below about 30%; further: 0% is about no effect; the text of the record puts the active cut at 80%
#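 Agonist activity was taken from a 110 s kinetic Ca2+ dye read on the FDSS after pinning compounds onto TRPML1-DL cells. The cells were seeded at 1,500/well with Tet inducer, incubated about 16 h, then dye-loaded at room temperature.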
# PINK1 modulator – A Quantitative High throughput Screen to Identify Chemical Modulators of PINK1 Expression | PINK1 immunofluorescence, high-content cytometry, 24 h | Potency, µM (top dose mostly 76.6 µM), inactives show at the highest dose activation (PINK1 increase), hits mostly activators | 0.2% of 410,000 active | AID 624263, 2012; active = well fitted activation curve with a large enough effect; inconclusive = small, poorly fitted or top-dose-only effect; inactive = flat fitted curve, though single readings scatter; cell line not stated here;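 further: potency means the concentration at half of the fitted maximal effect; % of control where 0% means no effect; nearly all actives have a fitted effect of over 65% in size; a mitochondrial uncoupler was the plate control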
#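 Stable cell line, 250 cells/well, 12 h attachment; compounds pinned at 5 concentrations, 24 h; CCCP control. Fixed with nuclear dye, primary antibodies 12 h at 10 degrees C, secondary plus cell stain; laser-scanning cytometer read.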
# An asterisk follows results filed as active; ? = inconclusive; . = not tested or not shown; [ ] = another dose, or the depositor's remark.
SMILES,Six1-Eya2 blk,TRPML1 blocker,D2 PAM,D2 agonist,TRPML1 ag,PINK1 modulator
Brc1cc2c(cc1/C=N/Nc1nc(N3CCOCC3)nc(N3CCOCC3)n1)OCO2,0,8,5,2.0,0.1,-0.4%
CC1CN(CCC(=O)Nc2ccc3c(c2)CCC3)CC(C)O1 (stereo unspecified),5,-8,-22,1.2,-0.4,0.0%[38.3 µM]
O=C1CC(N2CCN(c3ccc(F)cc3)CC2)C(=O)N1Cc1cccs1 (stereo unspecified),-8,37,-18,-2.7,1.3,-0.1%
CCCCCNC(=O)CCc1ccccc1,6,-4,-13,-4.0,-0.4,2.4%
CC(C(=O)Nc1ccccc1C(=O)O)n1c(C(F)(F)F)nc2ccccc21 (stereo unspecified),8,-7,9,-3.6,0.3,2.9%
O=C(Oc1ccc(Cl)c2ccccc12)N1CCCCC1,11,1,-14,-2.4,1.7,8.4%
Cc1cc(C(F)F)n2nc(C(=O)Nc3c(C)cccc3C)nc2n1,.,-14,.,.,-0.6,1.0%
COc1ccc(C)cc1NC(=S)NC(C)c1ccc(OC)c(OC)c1 (stereo unspecified),?,33,53*,-0.3,6.4,7.3%
O=C(COC(=O)c1ccc(S(=O)(=O)N2CCCCC2)cc1)Nc1ccccc1,18,36,-5,-2.2,0.6,1.3%
Cc1c(NC(=S)N/N=C/C=C/c2ccccc2)c(=O)n(-c2ccccc2)n1C,-3,-5,-14,-7.3,0.1,0.4%
CCn1c(=O)[nH]c2cc(C(=O)N3CCN(c4ccccc4)CC3)ccc2c1=O,4,-13,-4,-2.8,-0.2,7.4%[38.3 µM]
CC(C)c1ccc(NC2CCCN(C(=O)c3ccco3)C2)cc1 (stereo unspecified),-18,-3,-11,-0.5,1.4,4.3%
CCn1c(CN2CCC(C)CC2)nc2cc(NC(=O)c3cccc([N+](=O)[O-])c3)ccc21,.,8,.,.,0.0,4.7%
COc1ccccc1C(c1c(N)n(C)c(=O)n(C)c1=O)C(C)[N+](=O)[O-] (stereo unspecified),2,-3,3,6.8,0.5,-0.4%
Cc1ccccc1Nc1nc(N)nc(COC(=O)CCNS(=O)(=O)c2ccccc2)n1,11,5,-29,-3.0,2.3,0.5%
O=C(Nc1cc(C(F)(F)F)ccc1N1CCOCC1)c1cncc(Br)c1,0,-5,-3,-0.4,-0.9,2.6%[38.3 µM]
COc1ccc(-c2noc(CCC(=O)N3CCN(c4cccc(C)c4)CC3)n2)cc1,0,2,-3,-7.7,-0.8,-0.1%
CC(=O)c1ccc(N2CCN(C(=O)NCc3noc4ccc(C)cc34)CC2)cc1,.,-19,.,.,0.4,-1.8%
O=C1CC2(CCCC2)C(=O)N1CN1CCN(S(=O)(=O)c2cc(F)ccc2F)CC1,6,1,-8,0.6,0.0,2.7%
COc1ccc(Cl)cc1NC(=O)c1noc2c1CCc1ccccc1-2,.,4,.,.,-0.3,3.4%
N#CC1=C(SCc2ccccc2)NC(=O)CC1c1cccc(O)c1 (stereo unspecified),-2,24,11,-0.9,0.3,.
CCOC(=O)C1CCN(c2c(NCCCN3CCN(Cc4ccccc4)CC3)c(=O)c2=O)CC1,3,21,-8,0.5,-0.2,1.7%[38.3 µM]
O=C(c1ccc(C(F)(F)F)cc1)N1CCC(=O)N(C(CO)Cc2ccccc2)CC1 (stereo unspecified),2,-11,-13,-4.6,0.1,5.9%
Nc1ccccc1NC1=CC(=O)CC(c2ccco2)C1 (stereo unspecified),-2,54,-2,-1.2,-0.1,-2.9%
CCn1cc(CN(C)C(=O)CSc2nc(-c3ccco3)cc(C(F)(F)F)n2)c(C)n1,10,-7,1,1.4,-0.5,2.5%

# 4 entries from above, with tabs.
molecule	Six1-Eya2 blk	TRPML1 blocker	D2 PAM	D2 agonist	TRPML1 ag	PINK1 modulator
O=C1CC(N2CCN(c3ccc(F)cc3)CC2)C(=O)N1Cc1cccs1 (stereo unspecified)	-8	37	-18	-2.7	1.3	-0.1%
CCCCCNC(=O)CCc1ccccc1	6	-4	-13	-4.0	-0.4	2.4%
CC(C(=O)Nc1ccccc1C(=O)O)n1c(C(F)(F)F)nc2ccccc21 (stereo unspecified)	8	-7	9	-3.6	0.3	2.9%
O=C(Oc1ccc(Cl)c2ccccc12)N1CCCCC1	11	1	-14	-2.4	1.7	8.4%

# Two compounds drawn at random from the list so far:
SMILES,Six1-Eya2 blk,TRPML1 blocker,D2 PAM,D2 agonist,TRPML1 ag,PINK1 modulator
O=C1CC(N2CCN(c3ccc(F)cc3)CC2)C(=O)N1Cc1cccs1 (stereo unspecified),-8,37,-18,-2.7,1.3,-0.1%
COc1ccc(C)cc1NC(=S)NC(C)c1ccc(OC)c(OC)c1 (stereo unspecified),?,33,53*,-0.3,6.4,7.3%

# Carrying on.
SMILES,Six1-Eya2 blk,TRPML1 blocker,D2 PAM,D2 agonist,TRPML1 ag,PINK1 modulator
CC(C)(C)n1cnnc1Sc1ccc([N+](=O)[O-])cn1,-1,-6,-16,1.6,-0.4,0.0%
O=C(NCc1ccco1)c1ccc2sc([C@@H]3O[C@H](CO)[C@H](O)[C@H](O)[C@H]3O)nc2c1,2,.,-10,-9.5,-0.4,5.9%
FC(F)(F)c1nnc2ccc(NCc3ccccc3)nn12,-5,-1,2,3.9,1.0,3.0%
Cc1nn2c(Nc3ccccc3)c3c(nc2c1-c1ccccc1)CCC3,18,12,-5,1.7,0.0,7.7%
CC1CC2=C(C(=O)O1)C(c1ccccc1)Nc1ccccc1N2 (stereo unspecified),3,4,-7,-7.1,0.4,2.4%
Cn1cc(Br)c(C(=O)Nc2sc3c(c2C#N)CCC3)n1,-1,3,-5,1.0,1.1,5.0%
Cc1c(/C(O)=C2\C(=O)C(=O)N(CCCN(C)C)C2c2ccco2)cnn1-c1ccccc1 (stereo unspecified),-4,3,-3,0.8,3.8,4.7%
CCOC(=O)c1ccc(OCc2nc(-c3cccs3)no2)cc1,20,-6,-15,0.9,1.1,.
Cc1[nH]n(-c2ccccc2)c(=O)c1C=Nc1ccc(S(=O)(=O)N=C(N)N)cc1,-4,-1,-7,-2.7,-0.6,0.4%
C=CCN1C(=O)CSc2ccc(C(=O)N3CCC(C)CC3)cc21,1,-9,0,-0.4,4.0,3.8%[38.3 µM]
CC1(C)CC(=O)C(C=NCC2CCN(C(=S)Nc3ccccc3)CC2)=C(O)C1,-2,-6,-3,-4.8,1.0,0.8%
COc1cc(OC)c(S(=O)(=O)NC(C)C)cc1C(=O)O,6,41,-7,-3.6,-0.7,0.3%
CC(=O)N1C(C)c2ccccc2C(C)(C)CC12CCCCC2 (stereo unspecified),24,15,-20,-4.0,5.0,3.3%
CCN(CCO)Cc1csc2ccc(C(C)(C)C)cc12,0,18,-25,-2.3,0.8,11%
CC(=O)Nc1ccc2c(c1)OCO2,10,1,0,-0.3,-0.6,3.2%
COc1ccc(C(=O)NC2CC(C)(C)Cc3c2cnn3-c2ccccc2C)c(OC)c1OC (stereo unspecified),-10,16,-6,-1.2,0.0,-0.6%
NC(=O)Cn1c(=O)n(CCCCCC(=O)NCc2ccc3c(c2)OCO3)c(=O)c2sccc21,.,28,.,.,1.0,-0.2%
COc1cc(C(=O)Nc2cc3c4c(c2)CC(=O)N4CCC3)cc(OC)c1OC,-4,-19,22,-2.2,-0.4,4.6%
Cc1ccc(/C(N)=N/OC(=O)c2ccc3c(c2)OCO3)cc1,-24,9,27,5.6,-0.1,12%
COc1ccccc1NC(=O)C(=O)N/N=C(\C)CC(=O)Nc1ccccn1,-3,22,-5,-1.9,-0.2,0.8%
O=C(C1=C[C@@H](c2coc3ccccc3c2=O)C[C@@H](OCc2ccc(CO)cc2)O1)N1CCN(Cc2ccccc2)CC1,-17,9,-8,3.4,0.6,-0.3%
CC1CCN(C2=NN3C(=N)/C(=C\c4ccc(OC(=O)c5ccco5)cc4)C(=O)N=C3S2)CC1,-10,6,-3,-1.9,-0.3,0.4%
CCCN(CC1CC1)C(=O)CCc1nnc(CCc2c[nH]c3ccccc23)o1,-7,-10,-3,-6.2,2.2,1.9%
Cc1cccc(N2CCN(C(=O)Cc3ccccc3[N+](=O)[O-])CC2)c1C,-3,15,-25,-2.2,-0.7,-0.6%
COc1ccc(OC)c(NC(=O)c2cc3n(n2)C(C(F)(F)F)CC(c2ccc4c(c2)OCO4)N3)c1 (stereo unspecified),-16,32,-5,-2.0,1.5,0.8%[38.3 µM]

# More results.
SMILES,Six1-Eya2 blk,TRPML1 blocker,D2 PAM,D2 agonist,TRPML1 ag,PINK1 modulator
COc1ccc(-c2[nH]ncc2CN(C)C(C)c2ccon2)c(OC)c1 (stereo unspecified),4,3,-13,-4.6,-0.5,1.4%
CCOc1ccc(OCC)c(NS(=O)(=O)c2cc(-c3cnc(C)o3)ccc2OC)c1,.,34,.,.,-0.9,0.3%
COCCN1C(=O)N[C@@H](c2cccc(F)c2)C(C(=O)OC)=C1C,8,3,-3,-2.0,0.5,-1.1%
CCc1noc(C)c1C(=O)N1CCN(c2ccc([N+](=O)[O-])cc2)CC1,-1,15,0,-1.0,-0.8,0.3%
CN(C)S(=O)(=O)c1cccc(NC(=O)c2sccc2-c2ccccc2)c1,-2,-5,7,-3.9,1.8,2.4%
Cc1c(CNCCC2=CCCCC2)c(C(=O)O)c(C)n1Cc1ccccc1,-10,2,-4,-5.8,-0.7,0.4%
Cc1ccc(-n2ncc3c(SCc4cccc(C)c4)ncnc32)cc1,0,3,-9,3.4,0.7,0.2%
COc1ccc(CC(=O)N/N=C(\C)c2cccnc2)cc1,3,-2,-17,-8.7,2.4,0.7%
CN1CC2(C)CN(C(c3ccccc3)c3ccccc3)CC(C)(C1)C2O (stereo unspecified),0,-10,-14,-2.1,0.9,-2.1%
CCCc1cc(=O)[nH]c(SCC(=O)NC(=O)NC2CCCC2)n1,7,29,-14,1.2,5.4,-0.4%
CCOC(=O)C1=C(C)N=C2c3ccccc3C(=O)C2C1c1ccc(C)cc1 (stereo unspecified),-7,4,-14,2.4,-0.5,4.1%
COc1cc(C(=O)NCC2CCCO2)ccc1OCc1c(C)noc1C (stereo unspecified),-4,4,-6,-1.6,-0.4,-0.7%
CCOc1ccc(S(=O)(=O)N2CCOCC2)cc1NC(=O)CN1C(=O)NC(C)(c2ccccc2)C1=O (stereo unspecified),-1,-12,21,-3.2,0.1,7.5%
COc1ccccc1CNC(=O)COC(=O)/C=C/c1ccc(OC(F)F)c(OC)c1,1,-24,-10,-1.5,0.0,2.1%
CN(CCc1ccccn1)S(=O)(=O)c1ccc(F)cc1,-3,8,-9,-1.2,0.1,2.3%
O=C(CCN1C(=O)/C(=C/c2ccccc2)SC1=S)Nc1ccccn1,-7,-16,-7,-0.8,-0.3,9.8%
COc1ccc(OC)c(NC(=O)N2CC(C)Oc3ccc(C)cc32)c1 (stereo unspecified),.,-16,.,.,1.5,0.5%
